# Assay outcomes deposited in PubChem by National Center for Advancing Translational Sciences (NCATS).
# Prx2 Sm inh: Schistosoma Mansoni Peroxiredoxins (Prx2). Potency, µM. hit rate 0.07% among 65,000. S. mansoni Prx2 activity coupled to TGR/GSH (TGR is thioredoxin glutathione reductase), NADPH fluorescence loss, qHTS; some inactives read as strong as hits. Schistosoma mansoni peroxiredoxin 2 (Prx2); active means full or partial inhibition curve with a strong effect at the top dose; inconclusive means weaker partial or single-point curve; inactive means no accepted curve; also: series up to 57 µM; many of its hits are not listed in these tables
#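 Enzyme mix: 100 uM NADPH, 25 nM TGR, 700 uM GSH, 50 nM Prx2 in 100 mM phosphate pH 7.4, 10 mM EDTA, 0.01% Tween-20. 15 min RT with compound; NADPH/GSH added, H2O2 starts reaction; NADPH fluorescence read 8 min.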
# LT uptake inh: qHTS Assay for Anthrax Lethal Toxin Internalization; Cells, anthrax lethal toxin internalization, FRET ratio (460/530); Potency, µM (doses to about 40 µM), without a hit: top-dose activity change, negative = inhibition, actives largely listed as inhibitors; hit rate 0.67% among 70,000; active = well fitted falling ratio curve with the 530 nm signal flat; inconclusive = other ratio curves, or a change in one channel alone; inactive = flat curves in the ratio and both channels; the % refers to the ratio; also: % is scaled to controls: 0 for no effect and ±100 for the full control effect; nearly all actives have a fitted effect of over 50% in size; tested in ME-180 cells; beta-lactamase reporter
# * marks the source's active call; other numbers are inactive results; ? = inconclusive; · = no result given; & = joins results of further samples; [ ] = dose if it differs, or a comment. Potency is read from the fitted curve at half-maximal effect.
SMILES,Prx2 Sm inh,LT uptake inh
O=C(NCc1ccc2c(c1)OCO2)C1CC(=O)N(CCc2ccccc2)C1 (configuration not stated),>57,1%
Cc1cccc(Cc2c(C)nc3nc(SCC(=O)NCc4ccco4)nn3c2C)c1,>57,-11%
CCOC(=O)N1CCC(NC(=O)c2cnn3ccccc23)CC1,>57,7%
CCCOc1cccc(C(=O)N(Cc2cccs2)C2CCS(=O)(=O)C2)c1 (configuration not stated),>57,·
CCOC(=O)C1CCCN(C(=O)c2cn(C)c(=O)c3cc(OC)c(OC)cc23)C1 (configuration not stated),>57,-9%
Nn1c(CSc2ccccn2)nc2ccccc2c1=O,>57,?
COc1ccc(-n2c(Cc3cc(=O)[nH]c(=O)[nH]3)nnc2SCC(=O)N2CCC(C)CC2)cc1,>57,-5%
COc1ccc(-n2nc3cc(C)c(NC(=O)c4cccnc4)cc3n2)cc1,>57,-2%
CC(=O)c1ccc(NC(=O)C2CCCN2S(=O)(=O)c2ccc(F)cc2)cc1 (configuration not stated),>57,-1%
Nc1cc(Cl)c([N+](=O)[O-])cc1O,·,-4%
COc1ccc(N2C(=O)c3ccc(NC(C)=O)cc3C2=O)cc1,>57,?
CSCCC(N=CC1=C(O)CC(C)(C)CC1=O)C(=O)O (configuration not stated),>57,-7%
C/C(CCN1CCc2nc(-c3ccccc3)c(-c3ccccc3)cc2C1)=N\O[C@@H](C)c1cc(-c2c(C)cc(C)cc2C)no1,·,-18%[8 µM]
CSC(=O)NC12CC3CC(CC(C)(C3)C1)C2,>57,1%
c1ccc2c(c1)CCN(c1nc3ccccc3n3cnnc13)C2,>57,?
CCCCCCc1ccc(-c2ccc(C#N)cc2)cc1,·,?
CCOc1ccc(S(=O)(=O)Nc2cccnc2)cc1,>57,9%
CCOC(=O)Cn1c(C)nc2c(C(=O)OCC)sc(C)c2c1=O,·,3%
COc1cccc(OC)c1C(=O)N1CCN(Cc2ccc3c(c2)OCO3)CC1,>57,4%
N#CCCn1c(=O)c(-c2ccccc2)nc2cnc(N3CCNCC3)nc21,>57,?
CCCCn1c(=S)[nH]c2c(oc3ccc(Cl)cc32)c1=O,>57,22%
O=C(COC(=O)c1cccs1)NCc1ccc2c(c1)OCO2,>57,23%
CC1(O)C[C@]2(C)N(O)C3CCCC[C@@H]3N2O1 (some centres not stated),>57,4%
Cc1sc(NC(=O)c2ccccc2)c(C(=O)N2CCN(C)CC2)c1C,>57,·
COC(=O)[C@@H]1C[C@H]1[C@@H](N)c1ccccc1,>57,-1%
SMILES,Prx2 Sm inh,LT uptake inh
Cc1occc1-c1nnc(SCC(=O)NCC2CCCO2)n1C (configuration not stated),>57,1%
Cc1cccc(NCc2ccccc2O)n1,>57,-20%
Cc1nccn1CCc1n[nH]c(=S)n1Cc1ccccc1,>57,-12%
CCN(CC)CCNC(=O)C(C(=O)c1ccccc1)n1ccccc1=O (configuration not stated),>57,18%
Cc1ccsc1C(=O)OCC(=O)c1cc(C)n(CC2CCCO2)c1C (configuration not stated),>57,-10%
CC1=C(C(N)=O)C(c2ccc(Cl)cc2Cl)n2ncnc2N1 (configuration not stated),>57,0%
O=C(OCc1cc2ccccc2[nH]c1=O)c1cccnc1,>57,-7%
O=C(Nc1ccc(O)cc1)C1CCCN1S(=O)(=O)c1ccc(F)cc1 (configuration not stated),>57,0%
CN(CCc1ccccn1)S(=O)(=O)c1ccc2c3c(cccc13)C(=O)N2,>57,13%
O=C(Nc1ccc(Oc2ccccc2)cc1)C1CCCN(c2ncccn2)C1 (configuration not stated),>57,?
Cc1ccc2c(c1)nnn2C1CCN(CC(=O)N2CCN(c3ccc(F)cc3)CC2)CC1,>57,-20%
CN1C(=O)N(c2cccc3ccccc23)C(n2cncn2)C1(C)C (configuration not stated),>57,-5%
COc1ncc2nc(-c3ccc(Cl)cc3)c(=O)n(C)c2n1,>57,-10%
Cc1cc(NC(=O)c2noc3c2CCc2ccccc2-3)no1,>57,-1%
N=C(N)c1ccc(N2CCN(C3CCN(CC(=O)O)CC3)CC2)cc1,·,-16%
CC12CCC(C(=O)NCc3ccc4c(c3)OCO4)(OC1=O)C2(C)C (configuration not stated),>57,3%
Cc1cc(C)c2cc(C#N)c(SCC(=O)NCc3ccco3)nc2c1,>57,?
COc1ccc(N2CCN(CC(=O)Nc3c(C)cc(C)cc3C)CC2)cc1,>57,-12%
CCCc1ccc(OCCNC(=O)CC)cc1,>57,?
O=C(O)c1cccc(CSc2ncccn2)c1,>57,8%
O=C(c1csnn1)N1CCC2(CC1)CCN(c1cccc(-c3ccccc3)c1)CC2,>57,-8%
Cc1nnc(SCc2cnc(-c3ccc(C(C)C)cc3)s2)n1C,>57,-5%
CC(=O)NCCC(=O)Nc1ccc(C)c(F)c1,>57,-8%
CO[C@]1(NC(=O)Cc2cccs2)C(=O)N2C(C(=O)O)=C(COC(N)=O)CS[C@H]21,>26,5µM*
O=C1COc2cccnc2N1,>57,-7%
SMILES,Prx2 Sm inh,LT uptake inh
COc1ccc(S(=O)(=O)Nc2cc(C(=O)NCCC(C)C)ccc2N2CCOCC2)cc1,>57,?
CCc1nnc(NC(=O)CSc2nnc3ncccn23)s1,>57,-16%
COc1ccc2[nH]cc(CCNc3ncncc3-c3ccccc3OC)c2c1,>57,?
O=C(O)c1cccc(NS(=O)(=O)c2ccc(Cl)c(C(=O)O)c2)c1,>57,0%
Cc1ccc(-n2c(=O)cc(N3CCC(C)CC3)[nH]c2=O)cc1,>57,-14%
CN1CCN(CCC=C2c3ccccc3Sc3ccc(S(=O)(=O)N(C)C)cc32)CC1,>57,?
COc1ccc(Cn2c(=O)n(Cc3ccco3)c(=N)c3c4c(sc32)COC(C)(C)C4)cc1,>57,?
O=C(COc1ccc(S(=O)(=O)N2CCCC2)cc1Cl)NCc1ccc2c(c1)OCO2,>57,1%
O=C(O)c1cccc(S(=O)(=O)Nc2ccccc2Cl)c1,>57,-5%
CCn1cc(Br)c(C(=O)NC(C)c2ccccc2)n1 (configuration not stated),>57,10%
Cc1c(O)ccc2c3c(c(=O)oc12)CCCC3,>57,13%
CN1CCN(c2ccncc2S(=O)(=O)N2CCN(C)CC2)CC1,>57,-10%[8 µM]
CCCC(=O)Nc1cc(-c2nn(C)c(=O)c3ccccc23)ccc1N1CCCCC1,>57,?
c1ccc(CC2CCN(c3nc4ccccc4n4nnnc34)CC2)cc1,>57,-8%
CCCNC(=O)c1ccccc1NS(=O)(=O)c1ccc2c(c1)OCCO2,>57,6%
CCN(Cc1cc2ccccc2[nH]c1=O)C(=O)c1cccnc1,>57,-15%
CN1CCc2c(sc3c2c(=O)n(-c2ccccc2)c2nncn32)C1,>57,-5%
COc1nc(Nc2cccc(C)c2)nc(N2CCCCC2)n1,>57,?
Cc1cc(C)nc(NC2=NCC(=O)N2c2cc(Cl)cc(Cl)c2)n1,>57,8%
Cc1ccc2c(c1)CC1(CN2C)C(=O)NC(=O)N(c2ccccc2C)C1=O (configuration not stated),>57,?
O=C(CN1CCN(c2ncccn2)CC1)N1CCN(C(c2ccccc2)c2ccccc2)CC1,>57,0%
Cc1cnn(-c2cc(Oc3ccccc3)ncn2)c1,>57,?
O=C(c1ccco1)N1CCN(CC(=O)N(C2CCCCC2)C2CCS(=O)(=O)C2)CC1 (configuration not stated),>57,1%
O=C(O)C(C(=O)O)P(=S)(S)c1ccccc1 (configuration not stated),>57,-1%[8 µM]
COCCn1c(=O)c(-c2ccccc2)nc2cnc(Nc3ccccc3)nc21,>57,?
SMILES,Prx2 Sm inh,LT uptake inh
CCOC(=O)Cc1nnc(NC(=O)c2ccco2)s1,>57,·
COCC(=O)N1CCC2(CC1)CCN(C(=O)Nc1ccc(OC)cc1)CC2,>57,0%
CCOC(=O)C1=C(C)OC(N)=C(C#N)C1c1ccc(OC)c(C)c1OC (configuration not stated),·,-6%
CN(C)CCCN1C(=O)CSC1c1ccccc1 (configuration not stated),>57,-12%
N#Cc1cccc(NC(=O)N2CC3(CCN(C(=O)Oc4ccccc4)CC3)C2)c1,>57,4%
COC(=O)C1(Cc2ccccc2)C=C2C(=C(C)C(=O)C2C)CN1 (configuration not stated),>57,-3%
N=c1c2c3c(sc2ncn1CCCN1CCOCC1)CCCCC3,>57,-21%
CCOC(=O)C1Cn2c(nc3c(c2=O)C(C)(C)Cc2ccccc2-3)S1 (configuration not stated),·,10µM*
CC(Oc1ccccc1F)C(=O)NCCN1CCCCC1 (configuration not stated),>57,-11%
CCOc1cc(NC(=O)c2ccco2)c(OCC)cc1NC(=O)c1cc(OC)c(OC)c(OC)c1,>57,-14%
Nc1ccccc1OCCOCCOc1ccccc1N,>57,5%
CCOC(=O)C(CC)n1cnc2c(nnn2-c2ccc(OC)cc2)c1=O (configuration not stated),>57,21%
O=C(c1ccc2ccccc2c1)N1CCN(c2ccc(O)cc2)CC1,>57,-2%
COc1cc(Br)c(S(=O)(=O)Nc2c(C)n(C)n(-c3ccccc3)c2=O)cc1OC,>57,4%
O=C(O)CSc1ncccc1[N+](=O)[O-],>57,-9%[8 µM]
COc1ccc(S(=O)(=O)C(C#N)c2nc3ccccc3nc2N2CCCC(C)C2)cc1 (configuration not stated),>57,-2%
O=C(Nc1ccccc1-c1ccccc1)c1ccco1,>57,12%
CCCCn1c(SCC(=O)OCC)nnc1-c1ccoc1C,>57,-9%
COc1ccc(Nc2nc(-c3sc(N)nc3C)cs2)cc1,>57,?
CCN(CC)c1ccc(NC(=O)COc2ccc(C)cc2)cc1,·,-4%
CCOC(=O)c1ccc(N2C(=O)C3ON(c4ccccc4)C(c4ccco4)C3C2=O)cc1 (configuration not stated),>57,-12%
COc1ccccc1Cn1c(-c2ccco2)nc2nc3ccccc3nc21,>57,0%
NC[C@@H]1O[C@H](O[C@H]2[C@H](O)[C@H](O[C@@H]3O[C@H](CO)[C@@H](O)[C@H](N)[C@@H]3O)[C@@H](N)C[C@H]2N)[C@@H](O)[C@H](O)[C@@H]1O,>57,-7%[3.58 µM]
NC(=O)c1ccccc1,>57,4%&-8%
Cc1cc(C)cc(NC(=O)N2CCC(c3nc4ccccc4o3)CC2)c1,>57,?

# Reformatted as labelled records: part of the list above
COc1ccccc1Cn1c(-c2ccco2)nc2nc3ccccc3nc21
  Prx2 Sm inh: >57
  LT uptake inh: 0%
NC[C@@H]1O[C@H](O[C@H]2[C@H](O)[C@H](O[C@@H]3O[C@H](CO)[C@@H](O)[C@H](N)[C@@H]3O)[C@@H](N)C[C@H]2N)[C@@H](O)[C@H](O)[C@@H]1O
  Prx2 Sm inh: >57
  LT uptake inh: -7%[3.58 µM]
NC(=O)c1ccccc1
  Prx2 Sm inh: >57
  LT uptake inh: 4%&-8%
Cc1cc(C)cc(NC(=O)N2CCC(c3nc4ccccc4o3)CC2)c1
  Prx2 Sm inh: >57
  LT uptake inh: ?

# Part of the list above in order of length of the SMILES, low to high:
SMILES,Prx2 Sm inh,LT uptake inh
Nc1ccccc1OCCOCCOc1ccccc1N,>57,5%
O=C(Nc1ccccc1-c1ccccc1)c1ccco1,>57,12%
COc1ccc(Nc2nc(-c3sc(N)nc3C)cs2)cc1,>57,?

# Additional structures follow:
SMILES,Prx2 Sm inh,LT uptake inh
CCOc1cc(C2Nc3ccccc3C(=O)N2c2ccccc2)ccc1O (configuration not stated),>57,4%
COc1ccccc1Oc1ccc(S(=O)(=O)NCc2ccccn2)cc1,>57,-9%
COc1ccc(OC)c(NC(=O)CSc2nc(C)cs2)c1,>57,3%
O=C1N2CCCc3cccc(c32)C12Nc1ccccc1S2 (configuration not stated),>57,-16%
CCOc1ccccc1NC(=O)CSc1nnc(-c2ccccc2Cl)n1Cc1ccco1,>57,-31%
Cn1c(SCC(=O)OC2CCCCC2)nnc1-c1ccc2c(c1)OCO2,>57,20%
Cc1cc(NC(=O)CCC(=O)N(c2ccccc2)C(C(=O)NC2CCCC2)c2ccncc2)no1 (configuration not stated),>57,-21%
Cc1nn(C)cc1NC(=O)CCSc1nc(-c2ccco2)cc(C(F)(F)F)n1,>57,?
Cc1cccc(C)c1OCc1nnc2c3cnn(C)c3ncn12,>57,?
COc1cccc(NC2SC(=O)N(c3ccccc3)C2=O)c1 (configuration not stated),>57,-18%
c1ccc2c(c1)CCN(Cc1nnnn1Cc1ccc3c(c1)OCO3)C2,>57,-12%
CN(C(=O)COc1cccc(Br)c1)C1CCS(=O)(=O)C1 (configuration not stated),>57,6%
CCOC(=O)C1=C(C)NC(=O)CC1c1ccccc1 (configuration not stated),>57,-5%
CCCCOc1ncnc2c1[nH]c1ccccc12,>57,16%
Cc1ccc2nc(NC3=NCN(C4CCCCC4)CN3)nc(C)c2c1,>57,-1%
O=C(Nc1ccc2c(c1)OCCO2)C1CCN(S(=O)(=O)c2ccc(Br)s2)CC1,>57,-11%
CCOC(=O)C1CCN(S(=O)(=O)c2ccc3[nH]c(=O)oc3c2)CC1,>57,3%
CCCCC(=O)Nc1nn(CCC)c2nc3ccccc3cc12,>57,?

# Rewritten field by field: 2 of the compounds above
c1ccc2c(c1)CCN(Cc1nnnn1Cc1ccc3c(c1)OCO3)C2
  Prx2 Sm inh: >57 | LT uptake inh: -12%

Cc1cccc(C)c1OCc1nnc2c3cnn(C)c3ncn12
  Prx2 Sm inh: >57 | LT uptake inh: ?

# A portion of the library; count on the stated rates, not on these rows.
